Screens (PubChem BioAssay)
ALR inh: inhibitors of human ALR sulfhydryl oxidase, primary screen, biochemical, H2O2 detection, HRP-luminol luminescence, single point | FAD-linked sulfhydryl oxidase ALR (Homo sapiens), P55789 | purified ALR, DTT oxidation | inhibition, % (no concentration beside the values) | 3.8% of 290,000 active | AID 485317, 2010;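 active = mean and each replicate at 75% or more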;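 note: stock transfer was 7.5 nL into about 7.5 µL; 0% = neutral wells and 100% = wells with inactivated enzyme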
Target sequence (P55789 whole entry, looked up): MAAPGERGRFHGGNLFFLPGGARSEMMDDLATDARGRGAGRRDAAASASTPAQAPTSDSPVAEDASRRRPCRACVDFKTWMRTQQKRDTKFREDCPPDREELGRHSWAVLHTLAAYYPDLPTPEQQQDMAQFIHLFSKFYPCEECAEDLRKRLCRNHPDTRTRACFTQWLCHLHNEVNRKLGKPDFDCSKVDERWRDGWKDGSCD
Ecoli growth: E. coli growth inhibition, primary screen, OD600. 0.21% of 330,000 active. Escherichia coli growth, 23 h; hits give low values. OD600 absorbance (concentration not given with the values);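 active = OD600 absorbance below the run mean of sample wells minus 3.6 SD, in any replicate, cut at about 0.56 in these data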;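 note: stock transfer was 300 nL into about 60 µL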
Beta2AR agonist: beta2AR agonists driving receptor internalization, primary screen, cell-based, FAP fluorogen, flow cytometry | Am2.2-beta2AR cells; reference of the scale not given here | response, % (test concentration not listed) | 0.43% of 340,000 active | AID 504454, 2011;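 active = response above a set limit, near 3 SD of response in nonfluorescent compounds, cut at about 42% in these data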;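 note: stock transfer was 100 nL into about 11 µL; a reference agonist was the positive control; negative values mostly stem from fluorescent compounds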
Target sequence (P07550 whole entry, looked up): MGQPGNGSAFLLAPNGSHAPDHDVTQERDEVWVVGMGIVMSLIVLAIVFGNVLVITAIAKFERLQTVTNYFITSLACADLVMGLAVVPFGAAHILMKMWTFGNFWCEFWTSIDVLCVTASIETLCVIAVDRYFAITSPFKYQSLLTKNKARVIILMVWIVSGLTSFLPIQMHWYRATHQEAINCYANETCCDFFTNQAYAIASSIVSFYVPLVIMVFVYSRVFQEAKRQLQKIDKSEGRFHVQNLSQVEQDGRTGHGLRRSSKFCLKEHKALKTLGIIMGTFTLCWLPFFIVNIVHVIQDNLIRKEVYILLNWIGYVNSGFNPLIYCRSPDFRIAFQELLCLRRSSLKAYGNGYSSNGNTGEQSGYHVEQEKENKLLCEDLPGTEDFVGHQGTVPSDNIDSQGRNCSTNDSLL
UCH37 inh: inhibitors of human UCH37 deubiquitinase, primary screen, biochemical, Ub-AMC cleavage, fluorescence | inhibition, % (test concentration not listed) | 0.33% of 330,000 active | Ubiquitin carboxyl-terminal hydrolase isozyme L5 (Homo sapiens), Q9Y5K5 | purified proteasome/UCH37;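 active = mean of two replicates above 20%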;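 note: 0% = compound-free wells with enzyme and 100% = wells lacking proteasome; stock transfer was 100 nL into about 20 µL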
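Material: human UCH37 enzyme supplied as purified proteasome complex. Measure: % inhibition of Ub-AMC cleavage fluorescence. Medium: pH 7.4 Tris-HCl (50 mM) with ovalbumin, ATP-MgCl2, DTT. Times: 30 min preincubation with enzyme, 25 min cleavage at room temperature. Detection: AMC fluorescence intensity at 355/460 nm.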
HNF4A DNA FP: change in binding of human HNF4A to DNA, primary screen, biochemical, fluorescence polarization, FITC-DNA. Hepatocyte nuclear factor 4-alpha (Homo sapiens), P41235. 1 h. activity change, % at 10 µM. 0.3% of 360,000 active; in the data active = activity change above about 30%, passing the limit was not always enough;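 note: controls were the assay level and a saturating level of protein; the project sought stronger binding though the title names inhibitors; some compounds called inactive have numbers as strong as hits; positive values seem to mean higher polarization but the record does not say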
FGF22 binding: binders of human FGF22 protein, primary screen, FGF22 synaptogenesis inhibitor project, biophysical, thermal shift, single point; recombinant FGF22 thermal shift, SYPRO orange fluorescence; percent of sucrose octasulfate shift, DMSO zero; calls only at 9.99 µM; 1.5% of 340,000 active; AID 651658, 2012;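 active = melting point raised past a set limit in the mean and every replicate; three in four hits are not shown here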
Target sequence (Q9HCT0 whole entry, looked up): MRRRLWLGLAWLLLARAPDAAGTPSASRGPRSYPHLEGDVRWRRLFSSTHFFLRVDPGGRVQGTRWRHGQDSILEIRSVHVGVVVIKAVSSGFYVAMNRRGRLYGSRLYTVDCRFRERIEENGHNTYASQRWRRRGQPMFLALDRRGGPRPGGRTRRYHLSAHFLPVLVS
Ecoli rRNA inh: reduced GFP signal of wild-type E. coli, primary screen, bacterial rRNA inhibitor project, GFP/RFP fluorescence, OD600, single point; E. coli WT GFP vs humanized-ribosome RFP mutants, 24 h; hits give low values; DMSO median 0, no signal -100; GFP signal change (wild-type ribosome), % (no concentration beside the values); 1.6% of 350,000 active; AID 720706, 2013;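 active = significant combined selectivity score with lowered wild-type GFP, culture density cut under 30%, mutant RFP and density less affected; inactive = any of these conditions unmet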; note: one replicate is shown; some compounds called inactive have numbers as strong as hits
Ecoli rRNA inh OD600: further read-out of Ecoli rRNA inh, marked with its call; OD600 change, %; measured here: OD600 growth;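 optical density of the mix in the first replicate; 0 = DMSO median and -100 = no signal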
Ecoli rRNA inh RFP: recorded beside Ecoli rRNA inh, whose call it bears; RFP signal change, %; measured here: RFP humanized mutant strains;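 first replicate; 0 = DMSO median and -100 = no signal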
The depositor's hits bear a star; i = inactive; nt = not tested or not shown. These rows are one share of the data; rates above refer to the full screens.

SMILES	ALR inh	Ecoli growth	Beta2AR agonist	UCH37 inh	HNF4A DNA FP	FGF22 binding	Ecoli rRNA inh	Ecoli rRNA inh OD600	Ecoli rRNA inh RFP
COC(=O)C1(C(F)(F)F)N=C2Sc3ccccc3N2C(N2CCOCC2)=N1 (stereo unspecified)	-26.3	0.669	15.6	4.7	-0.1	i	4.1	19.6	-2.9
Cc1cc(C)n(-c2nc(SCC(=O)N3CCCC3)c3c4c(sc3n2)CCCC4)n1	-1.4	0.675	11.4	0.5	10.1	nt	nt	nt	nt
COc1ccc(C(=O)Nc2cc(OC)c(Cl)cc2OC)cc1	-3.8	0.714	-0.2	4.4	3.6	i	14.6	11.9	-3.2
CC(C)Sc1nc2ccccc2c(=O)[nH]1	-45.7	0.653	0.2	-0.5	0.8	nt	nt	nt	nt
CN(C)Cc1c(O)c(Cl)cc2c3c(c(=O)oc12)CCCC3	72.4	0.749	-2.5	i	-4.9	nt	nt	nt	nt
O=C(c1cccn2c(=O)c3ccccc3nc12)N1CCN(c2ccccn2)CC1	6.1	0.755	-9.4	-31.5	3.3	nt	nt	nt	nt
O=C(NCCOc1ccccc1)c1cccc2c1C(=O)c1ccc(Cl)cc1S2(=O)=O	2.0	0.696	-4.3	1.4	3.1	i	5.4	6.1	1.1
O=C(NC1=NCCS1)c1sc2ccccc2c1Cl	2.1	0.627	-3.3	0.7	0.2	i	-30.6*	-10.9*	8.2*
CCCOC(=O)C1=C(C)N(C)C(=O)NC1c1cc2c(cc1[N+](=O)[O-])OCO2 (stereo unspecified)	11.8	0.705	1.3	-27.0	-1.3	nt	4.4	-6.0	1.6
O=C(COC(=O)[C@@H]1CCCN1C(=O)c1cccs1)Nc1cccc([N+](=O)[O-])c1	2.7	0.681	-2.5	3.9	3.4	i	-15.4	-16.5	-0.7
CCn1cc(C(=O)NCCCOC(C)C)c(=O)c2cc(S(=O)(=O)N3CCC(C)CC3)ccc21	-1.3	0.722	-3.0	4.0	1.6	i	0.7	10.1	0.4
COc1ccc(S(=O)(=O)N2CCCCCC2)cc1NC(=O)CN1C(=O)CNC1=O	nt	0.715	-3.9	2.2	0.6	i	-3.0	-13.8	-3.0
Cc1ccc(N2CC(NC(=O)C(=O)c3c[nH]c4ccccc34)CC2=O)cc1C (stereo unspecified)	-0.9	0.658	-8.0	-0.1	-0.9	i	4.1	9.5	-0.3
CCCCNC(=O)C1CCN(Cc2ccc(OCc3ccccc3)c(OC)c2)CC1	nt	0.665	15.5	2.5	0.1	i	-2.4	-0.9	1.4
CCOC(=O)c1c(NC(=O)c2cc3n(n2)C(C(F)(F)F)CC(c2cccs2)N3)sc(C)c1C (stereo unspecified)	-1.4	nt	-0.7	nt	2.1	nt	nt	nt	nt
COC(=O)COc1ccc2cc(-c3ccc(OC)cc3)c(=O)oc2c1	-0.4	0.697	15.9	i	9.2	i	6.7	7.3	-0.2
COc1cccc(/C=C2\CCCCC2=O)c1	0.6	0.628	1.4	1.3	-16.5	i	7.1	8.9	1.2
CCc1ccccc1NC(=O)N1C2CCCC1CC(NC(C)=O)C2 (stereo unspecified)	-10.9	0.65	-7.2	5.5	-3.9	nt	nt	nt	nt
COc1cc(C(=O)NC2=NCCS2)cc(OC)c1OC	-20.0	0.644	3.8	0.1	3.8	nt	nt	nt	nt
COc1ccc(OCCN2CCCC2)cc1Nc1nnc(Cl)c(Nc2ccccc2S(C)(=O)=O)n1	nt	nt	11.7	1.2	-0.4	nt	nt	nt	nt
CC(=O)C(=Cc1ccc(C(=O)O)cc1)C(C)=O	-4.4	0.675	2.4	-0.1	0.1	i	17.9	11.5	3.5
Cc1nc2ccc(NC(=O)CCS(=O)(=O)c3ccccc3)cc2s1	-1.4	0.619	-4.1	-0.5	1.9	i	-2.7	-1.1	-1.4
CCN(CCn1cccn1)C(=O)C1CCC(=O)N(CC2CCCCC2)C1 (stereo unspecified)	-5.5	0.668	-0.4	4.2	-1.1	i	7.0	0.8	0.8
CC(C)Cc1csc(NC(=O)C(C)C)c1C(=O)O	nt	0.693	-3.3	-0.2	3.2	i	-0.8	-3.9	-0.9
COc1ccc(-c2ccc(C(=O)Nc3ccccc3)c3occc23)c(C)c1	nt	nt	nt	nt	-2.3	i	-2.3	-8.8	-7.2
CSCCC(C(=O)NCc1ccccc1)n1c(C2CCN(C(C)=O)CC2)nc2ccccc21 (stereo unspecified)	nt	nt	nt	nt	5.1	nt	5.0	8.9	3.4
CCCN(CCC)S(=O)(=O)c1cccc(C(=O)N=c2sccn2C)c1	-0.8	0.7	14.3	-6.0	-0.7	i	-18.0	-15.8	-3.1
CC(=O)N1CCc2c(sc(NC(=O)CS(=O)(=O)c3ccc(F)cc3)c2C(N)=O)C1	nt	0.719	-6.4	3.9	-3.9	i	5.7	6.3	1.1
Oc1ccc(C(=S)N2CCCCCC2)cc1	7.6	0.63	10.3	0.4	4.4	nt	nt	nt	nt
CCOC(=O)C1CCCN(S(=O)(=O)c2ccc(-c3cc(C)no3)s2)C1 (stereo unspecified)	-6.9	0.691	4.0	1.9	1.6	i	-3.3	-21.9	-3.4
Cc1nc2c(C)cccn2c1/C(O)=C1\C(=O)C(=O)N(CCN(C)C)C1c1ccncc1 (stereo unspecified)	-1.6	0.671	8.0	8.0	-0.2	i	19.5	7.8	1.5
COc1cc(OC)cc(C(=O)Nc2nnc(NC(=S)Nc3ccccc3)s2)c1	1.5	0.713	16.2	-3.1	-4.1	nt	nt	nt	nt
COc1ccc(-c2cnn3c4c(c(C)nc23)CCN4C(C)C)cc1OC	2.7	0.726	-0.1	-22.9	-3.6	nt	nt	nt	nt
CCC(C)[C@H](NC(=O)c1cn(CC)c2cc3c(cc2c1=O)OCO3)C(=O)NCCCn1ccnc1 (stereo partly specified)	-1.9	0.659	-4.7	-6.1	1.9	i	2.6	13.9	1.3
CSCc1ccc(C(=O)NC2CC(C)(C)Cc3c2cnn3-c2ccc(F)cc2)o1 (stereo unspecified)	94.5*	0.698	-10.9	1.9	1.8	i	-11.8	-16.6	3.0
C[n+]1c2n(c3ccccc31)N=C(c1ccc(Cl)cc1)CS2	98.7*	0.666	-5.0	10.6	5.1	nt	nt	nt	nt
CCOc1cc(CNc2ccc(N3CCN(C(C)=O)CC3)cc2)cc(Br)c1OC	nt	0.655	3.8	2.3	0.1	nt	nt	nt	nt
C/C(=N\NC(=O)c1c[nH]c2ccccc12)c1ccc(C)s1	-7.3	nt	6.2	nt	-1.0	i	-8.1	-4.4	-0.7
O=C(CC12CC3CC(CC(C3)C1)C2)N1CCCC1	-5.3	0.671	0.1	1.8	0.2	i	-0.5	0.8	-1.4
CC(C)[C@H](NC(=O)N1CCn2c1nc1ccccc12)C(=O)N[C@@H](Cc1ccccc1)C(=O)O	-25.9	0.744	-10.6	2.7	-0.2	i	nt	nt	nt
CC1CC2(CC(C)(C(=O)CSc3n[nH]c(-c4ccccc4Cl)n3)OC2=O)C(=O)O1 (stereo unspecified)	66.2	0.666	3.9	3.1	-2.1	nt	nt	nt	nt
O=C(O)CCn1c(SCCOc2ccccc2F)nc2ccccc21	-0.6	0.653	3.7	2.9	-1.4	i	-4.5	0.7	0.1
CCOc1ccc(NC(=O)CN2CCN(S(=O)(=O)c3ccc(Cl)cc3)CC2)cc1	-2.2	0.683	-9.7	0.9	0.0	nt	nt	nt	nt
CCc1ccc(-c2cc(C(F)(F)F)n3nc(C(=O)Nc4c(C)nn(Cc5ccccc5Cl)c4C)cc3n2)s1	-2.6	0.693	16.0	-188.5	-4.3	nt	10.3	16.4	1.7
COc1ccc(NC(=S)NCCSc2ccc(Cl)cc2)c(OC)c1	-2.9	0.647	1.5	5.1	3.0	nt	nt	nt	nt
Cc1ccc(NC(=O)C2CCCN2C(=O)OCc2ccccc2)cc1C (stereo unspecified)	0.2	0.735	-6.9	4.0	2.5	i	-1.6	-3.9	1.8
C=CCN(CC=C)C(=O)c1ccc(OC2CCN(C(C)=O)CC2)c(OC)c1	-8.4	0.705	-0.9	3.3	3.3	i	-5.1	-9.8	-2.6
COc1ccc(-c2cc3c(c4c2ccn4C)C2CCC3O2)cn1 (stereo unspecified)	nt	nt	nt	nt	1.9	i	-34.0	-39.0	-7.3
CN(CC(=O)N1CCN(C2CCCCC2)CC1)S(=O)(=O)c1cccc2nsnc12	-8.4	0.706	2.4	1.6	-0.9	nt	2.8	6.2	-1.7
CCOC(=O)CN1CC(C)(C)N(CC(=O)OCC)CC1(C)C	nt	nt	-4.0	nt	-0.9	i	13.9	12.3	4.1
CC(=O)c1cccc(NC(=O)CSC(=O)c2ccccc2)c1	98.9*	0.677	0.0	-5.6	-4.5	i	1.6	-1.4	-1.0
CC(C(=O)N=Nc1c(O)[nH]c2ccccc12)n1cnc2ccccc2c1=O (stereo unspecified)	-3.4	0.694	-12.7	5.5	2.7	nt	nt	nt	nt
CC(C)(C)c1ccc(/C=C(\c2nc3ccccc3[nH]2)S(=O)(=O)c2ccccc2)cc1	-0.6	0.719	21.1	-0.4	-2.4	nt	nt	nt	nt
Cc1cc(NS(=O)(=O)c2ccc(NC(=O)COc3ccccc3C(C)C)cc2)no1	65.0	0.745	10.1	3.5	-2.4	i	-46.6	-68.5	-9.1
CCCN(CCC)CCNC(=O)C1CCN(Cc2nc(-c3ccc(Cl)cc3)oc2C)CC1	-6.0	0.651	20.1	2.3	6.9	nt	nt	nt	nt
O=C(O)c1ccc2c(c1)C(=O)N(c1ccc(Cl)cn1)C2=O	14.2	0.699	17.8	5.0	-4.1	i	2.6	7.5	-0.7
NC(=O)c1c(NC(=O)CCCn2cnc([N+](=O)[O-])n2)sc2c1CCCC2	1.9	0.689	-9.9	-1.1	1.0	i	11.8	5.9	-3.7
Cc1ccc(N2C(=O)N3[C@@H]4c5ccccc5OC[C@@H]4[C@@H](c4ccccc4)[C@@]3(C)C2=O)cc1	3.0	nt	-1.4	3.4	-1.1	i	8.8	6.4	-2.8
CC(C)(C)C(=O)Cn1c(=N)n(Cc2ccccc2Cl)c2ccccc21	4.7	0.692	3.0	5.4	2.5	nt	nt	nt	nt
Clc1cccc(OCCCCN2CCCCC2)c1	-1.8	0.643	2.7	2.4	-0.3	i	1.2	6.0	-2.1
Cc1ccc2c(c1C)-c1c(ccc(C)c1C)C(=O)C2=O	nt	nt	13.8	nt	3.2	i	-58.5	-77.3	-18.9
N#CCCn1nnc2ccccc21	-9.2	0.686	-0.7	4.3	-3.2	nt	nt	nt	nt
CN1CCN(C(=O)/C(=C/c2cccc([N+](=O)[O-])c2)NC(=O)c2ccccc2)CC1	-0.8	0.653	-3.0	1.3	-2.5	i	0.6	7.0	-4.0

Filtered by structure, the entries above with a tert-butyl group
SMILES	ALR inh	Ecoli growth	Beta2AR agonist	UCH37 inh	HNF4A DNA FP	FGF22 binding	Ecoli rRNA inh	Ecoli rRNA inh OD600	Ecoli rRNA inh RFP
CC(C)(C)c1ccc(/C=C(\c2nc3ccccc3[nH]2)S(=O)(=O)c2ccccc2)cc1	-0.6	0.719	21.1	-0.4	-2.4	nt	nt	nt	nt
CC(C)(C)C(=O)Cn1c(=N)n(Cc2ccccc2Cl)c2ccccc21	4.7	0.692	3.0	5.4	2.5	nt	nt	nt	nt
